VDR inh: vitamin D3 receptor (human) inhibition; AID 504847; Potency, µM, for the others: max response, negative = inhibition, hits mostly inhibitors; P11473; hit rate 0.93% among 400,000; VDR-SRC2-3 peptide fluorescence polarization, 2 h; active = well fitted inhibition curve with a large enough effect; inconclusive = small, poorly fitted or top-dose-only effect, or another doubt; inactive = no such curve, though single readings can be large or run the other way; note: series mostly up to about 120 µM
Target sequence (P11473 whole entry, looked up): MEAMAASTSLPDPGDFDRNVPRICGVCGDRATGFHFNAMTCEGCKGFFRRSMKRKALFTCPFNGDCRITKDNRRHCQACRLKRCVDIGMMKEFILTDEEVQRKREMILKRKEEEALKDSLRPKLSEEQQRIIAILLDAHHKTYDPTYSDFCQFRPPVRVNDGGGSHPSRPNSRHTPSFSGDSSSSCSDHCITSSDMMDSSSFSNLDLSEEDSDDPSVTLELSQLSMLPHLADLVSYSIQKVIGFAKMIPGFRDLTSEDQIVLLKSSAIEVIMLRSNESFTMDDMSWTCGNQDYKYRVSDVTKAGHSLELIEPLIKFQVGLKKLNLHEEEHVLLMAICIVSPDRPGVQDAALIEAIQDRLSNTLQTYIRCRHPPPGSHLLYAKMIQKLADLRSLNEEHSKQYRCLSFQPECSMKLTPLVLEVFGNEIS
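Two reagent solutions held at 4 deg C in the dark were dispensed, compounds pinned at 23 nl, and the mixture incubated 2 h at room temperature. Read-out: fluorescence polarization of VDR–SRC2-3 peptide binding.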
* = called active by the depositor; ? = inconclusive; [ ] = another dose, or the depositor's remark. % is set by controls: 0 for no effect and ±100 for the full control effect; potency is the fitted concentration of half-maximal effect. This is a subset, so the mix of outcomes need not match the whole.

No.	VDR inh	smiles
1	2%	CCc1ccc(-c2nc(CS(=O)CC(=O)NCCCN3CCOCC3)c(C)o2)cc1 (stereo unspecified)
2	-12%	O=C(NNc1c(Cl)cccc1Cl)C1CCC1
3	8%	COCCn1c(C)cc(C2=NNC(=Nc3ccccc3)SC2)c1C
4	-5%	Cn1cc(CN2CCCC(CO)(Cc3ccccc3)C2)cn1 (stereo unspecified)
5	0%	O=C(NNC(=S)Nc1cccc(Cl)c1)c1ccccc1OC(F)F
6	-23%	Nn1c(=O)[nH]c2c([nH]c3ccccc32)c1=O
7	10%	COc1ccc(-c2nc3scc(CCNS(=O)(=O)c4cccs4)n3n2)cc1
8	-7%	CCn1c(=O)cc(OCC(=O)N2CCN(C(=O)c3ccco3)CC2)c2ccccc21
9	-27%	CN(C)CCCNC(=O)/C(=C/c1ccc(-c2ccc([N+](=O)[O-])cc2)o1)NC(=O)c1ccccc1
10	-10%	O=S(=O)(/N=C(/Nc1ccc(F)c(F)c1F)c1ccccc1)c1ccccc1
11	-10%	CC(=O)Nc1cccc(NC(=O)CSc2ccc(-c3ccccn3)nn2)c1
12	20%	O=C(CN1C(=O)c2cccc3cccc1c23)NCc1ccncc1
13	3%	C[C@H](CO)N1C[C@H](C)[C@@H](CN(C)C(=O)Nc2ccccc2)Oc2ccc(NC(=O)Nc3ccc4c(c3)OCO4)cc2C1=O
14	-2%	CC(=O)N/N=c1\sc2ccccc2n1C
15	10%	CC(C)c1ccc2oc(-c3cc(N)ccc3O)nc2c1
16	-15%	COc1ccc(C(=O)N[C@H](C(=O)N2CCN(c3ccccc3F)CC2)C(C)C)cc1
17	4%	O=C(Nc1nccs1)c1ccc(CSc2ccccc2)o1
18	-6%	CCc1ccc(CN2CCC(Oc3ccc(C(=O)N4CCCCC4)cc3)CC2)cc1
19	-10%	Cc1ccc2cc(C(c3nnnn3C3CCCC3)N(Cc3ccccc3)Cc3ccco3)c(=O)[nH]c2c1 (stereo unspecified)
20	14%	COc1ccc(NCC(=O)N/N=C(\C)c2cc3ccccc3o2)cc1
21	6%	Cc1nnc(C)n1/N=C/c1ccc(-c2ccccc2)cc1
22	0%	Brc1ccc(-n2c(SCc3nc4ccccc4[nH]3)nnc2-c2ccncc2)cc1
23	-8%	O=C(c1cn(-c2ccccc2)nc1-c1ccc(Br)cc1)N1CCOCC1
24	4%	Cc1ccc(C2NNC(=O)C2NC(=O)c2ccccc2)cc1 (stereo unspecified)
25	-3%	CCc1ccc(N=C2NC(=O)/C(=C/c3cc(OC)c(OC)c(OC)c3)S2)cc1

5 structures from above, arranged by formula weight, lowest first.
No.	VDR inh	smiles
14	-2%	CC(=O)N/N=c1\sc2ccccc2n1C
12	20%	O=C(CN1C(=O)c2cccc3cccc1c23)NCc1ccncc1
10	-10%	O=S(=O)(/N=C(/Nc1ccc(F)c(F)c1F)c1ccccc1)c1ccccc1
18	-6%	CCc1ccc(CN2CCC(Oc3ccc(C(=O)N4CCCCC4)cc3)CC2)cc1
22	0%	Brc1ccc(-n2c(SCc3nc4ccccc4[nH]3)nnc2-c2ccncc2)cc1

2 compounds picked at random from those above:
No.	VDR inh	smiles
12	20%	O=C(CN1C(=O)c2cccc3cccc1c23)NCc1ccncc1
22	0%	Brc1ccc(-n2c(SCc3nc4ccccc4[nH]3)nnc2-c2ccncc2)cc1

Arranged by the number under VDR inh (high to low): three of the compounds above
No.	VDR inh	smiles
12	20%	O=C(CN1C(=O)c2cccc3cccc1c23)NCc1ccncc1
18	-6%	CCc1ccc(CN2CCC(Oc3ccc(C(=O)N4CCCCC4)cc3)CC2)cc1
10	-10%	O=S(=O)(/N=C(/Nc1ccc(F)c(F)c1F)c1ccccc1)c1ccccc1

More results:
No.	VDR inh	smiles
26	-15%	O=C(O)CCn1c(SCCOc2ccccc2F)nc2ccccc21
27	-5%	CC(C#N)Sc1ncnc2sc3c(c12)CCC3 (stereo unspecified)
28	-15%	COc1ccc(C(=O)O)cc1S(=O)(=O)N(C)C
29	-20%	O=C1/C(=C/c2cccnc2)Cc2ccc(Cl)cc21
30	-19%	NS(=O)(=O)c1ccc(CCNC(=O)c2ccc([N+](=O)[O-])s2)cc1
31	-2%	COc1ccc(NC(=S)N2CCN(C/C=C/c3ccccc3)CC2)cc1OC
32	2%	CCNC(=O)C(Cc1ccccc1)NC(=O)OCc1ccccc1 (stereo unspecified)
33	-2%	CCC1(C)OC(=O)N(CCCn2ccnc2C)C1(C)O (stereo unspecified)
34	-9%	C[N+](C)(C)CCOC(=O)C1(c2ccccc2)CCCC1
35	3%	CC1CC(C)CN(S(=O)(=O)N2CCCC(C(=O)NC3CCCCC3)C2)C1 (stereo unspecified)
36	13%	CCN(C(=O)C(C)OC(=O)C1C(C(=O)OC)=C(C)NC(C)=C1C(=O)OC)c1ccccc1 (stereo unspecified)
37	5%	CC[C@H](C)[C@@H](NC(=O)O[C@@H]1Cc2cc(OC)ccc2O[C@H]1c1cccc(OC)c1)C(=O)OC
38	4%	CCCCn1nc2cc(C(=O)NCCc3ccc(C)cc3)ccc2c1OCC
39	6%	COc1ccc(NC(=O)CSc2ncnc3c2cnn3Cc2ccccc2)cc1OC
40	0%	CC(=O)N1CCN(c2ccnc3cc(Cl)ccc23)CC1
41	-9%	Cc1ccc(C(=O)N(CC(=O)Nc2sc(C)c(C)c2C(N)=O)C2CCCC2)cc1
42	-10%	Cc1ccccc1OCC(=O)Nc1cc(S(=O)(=O)N2CCOCC2)ccc1N1CCCC1
43	-20%	CCOC(=O)c1cnc2ccc(Cl)cc2c1Nc1ccc(N2CCOCC2)cc1
44	0%	CCOC(=O)CCC(NC(=O)c1ccc(NCN2C(=O)CCC2=O)cc1)C(=O)OCC (stereo unspecified)
45	26%	Cc1ccccc1OCC(=O)NCCC(=O)O
46	6%	CN(CCc1cn[nH]c1)Cc1nc(C(c2ccccc2)c2ccccc2)no1
47	-15%	COCCNC(=O)C1CCC(=O)N1S(=O)(=O)c1ccc(C)cc1 (stereo unspecified)
48	-3%	CCN(CC)S(=O)(=O)c1cc(Cl)ccc1OC
49	9%	COc1ccc(C)cc1N(CC(=O)Nc1ccc(S(=O)(=O)N2CCCC2)cc1)S(C)(=O)=O
50	0%	CCc1nnc(NC(=O)CSc2ncc(-c3ccccc3)[nH]2)s1
51	8%	COc1ccc(OCCN2CCCC2)cc1Nc1nnc(Cl)c(Nc2ccccc2S(C)(=O)=O)n1
52	-8%	CCCN1C(=O)c2ccc(C(=O)Nc3ccccc3C(=O)O)cc2C1=O
53	14%	Cc1c(Cl)ccc2sc(N3CCN(C(=O)C(C)C)CC3)nc12
54	3%	Cc1nnc(SCC(=O)NCc2ccccc2Cl)c2nn(-c3ccccc3)c(C)c12
55	5%	Cc1ccc(NC(=O)CSc2ncn[nH]2)cc1C
56	-14%	CCCc1nnc(NC(=O)C(=O)NCCN(CC)CC)s1
57	10%	COc1cc(Cn2c(-c3ccc(O)c(OC)c3)nc3ccccc32)ccc1O
58	1%	O=C(Nc1cccnc1)C1CCCN1S(=O)(=O)c1ccc(Cl)c(Cl)c1 (stereo unspecified)
59	32%[activator]	COc1cccc(NC(=O)COC(=O)CC2CC3CCC2C3)c1 (stereo unspecified)
60	2%	O=C(COC(=O)c1cnccn1)Nc1ccc2c(c1)OCO2
61	-28%	COc1ccc(C2=Nn3c(nnc3-c3ccccc3OC)SC2)cc1OC1CCOC1 (stereo unspecified)
62	-12%	O=C(c1ccncc1)N1CCC[C@@]2(CCN(Cc3ccccc3)C2)C1
63	-16%	O=C(CCCNC(=O)/C(=C/c1ccccc1F)NC(=O)c1ccccc1)OCc1ccccc1
64	8%	COc1ccc(CCn2c(=S)[nH]c3cc(C(=O)NCc4ccco4)ccc3c2=O)cc1OC
65	-10%	CC(Sc1nnc(-c2cccnc2)o1)C(=O)NC1CCCC1 (stereo unspecified)
66	5%	CC(=O)c1ccc(NC(=O)CSc2nnc(NC(=O)NC3CCCCC3)s2)cc1
67	-2%	CCOC(=O)C(Oc1ccc2c(-c3ccccc3)cc(=O)oc2c1)c1ccccc1 (stereo unspecified)
68	?	COc1ccc(/C=N/NC(=O)CCc2n[nH]c(=O)[nH]c2=O)cc1OC
69	2%	COc1cccc(OC)c1C(=O)Nc1ccc2c(c1)N(S(=O)(=O)c1cccs1)CCC2
70	0%	CC(C)=CC(O)C/C(C)=C/COc1ccc2ccc(=O)oc2c1 (stereo unspecified)
71	-4%	COc1cc(OC)c(C(=O)Oc2ccc3c(c2)OCO3)cc1OC
72	12%	Cc1ccc(S(=O)(=O)Nc2ccccc2N2CCCCC2)cc1
73	-11%	COc1ccc2nc(SCC(=O)Nc3cc(OC)c(OC)cc3C(=O)O)c(C)cc2c1
74	9%	CN1C(=O)Cc2cc(S(=O)(=O)CCC(=O)Nc3ccc(OC(F)(F)F)cc3)ccc21
75	9%	O=c1cnn(Cc2ccc(Cl)c(Cl)c2)c2ccccc12

Later entries:
No.	VDR inh	smiles
76	-10%	Cc1ccc(C(=O)NCCCNC(=O)COc2ccc(Cl)cc2)cn1
77	-3%	CCOC(=O)c1cnc2c(ccc3ccccc32)c1Nc1ccc(OCC)cc1
78	-5%	CN1CCN(c2ccccc2NC(=O)c2cc3ccccc3o2)CC1
79	-5%	Clc1ccc(CN2C3=NCCN3c3ccccc32)cc1Cl
80	4%	CCCCCn1c(N2CCN(Cc3ccccc3)CC2)nc2c1c(=O)[nH]c(=O)n2C
81	21%	CC1=C(C(=O)OC(C)C)C(c2ccco2)NC(=O)N1 (stereo unspecified)
82	-24%	Nc1nc2ccccc2n1CCOc1ccc(Cl)cc1
83	8%	COc1ccc2[nH]cc(CCNC(=O)Cc3ccc(Br)cc3)c2c1
84	7%	CCN(CC)Cc1oc(CO)cc(=O)c1O
85	-1%	Cn1c(=O)c2cc(S(=O)(=O)NCCC(=O)N3CC=C(c4ccccc4)CC3)ccc2n(C)c1=O
86	-23%	O=C(Nn1c(-c2ccc(Br)cc2)nc2ccccc2c1=O)c1cccnc1
87	-26%	Cc1ccc(CNC(=O)/C=C/c2ccc(S(=O)(=O)NCc3ccco3)cc2)cc1
88	-7%	Cc1ccc(S(=O)(=O)NC(C(=O)N2CCOCCOCCOCCOCC2)c2ccccc2)cc1 (stereo unspecified)
89	10%	CCn1c(=O)cc(SCC(=O)NCc2ccccc2OC)c2ccccc21
90	-6%	C(=NOCCc1ccccc1)c1cccnc1
91	4%	O=C(CCCc1nc(-c2ccccc2)no1)NCc1cccnc1
92	-19%	O=C(O)CCc1ccc(-c2ccc(Cl)cc2)n1CCC(=O)O
93	?	Cc1cc(Cl)cc(C)c1OCC(=O)O
94	45µM*	O=[N+]([O-])c1ccc(NNC(=S)Nc2ccccc2)cc1
95	-9%	C[C@H](CO)N1C[C@H](C)[C@@H](CN(C)C(=O)NC2CCCCC2)Oc2c(NS(=O)(=O)c3cn(C)cn3)cccc2C1=O
96	-9%	CC(CNC(=O)CCc1ccccc1)NC(=O)CCc1ccccc1 (stereo unspecified)
97	-11%	Cc1ccc(NC(=O)c2cc(-c3ccc(C)o3)nc3ccccc23)nc1
98	-10%	Cc1cc(C)c2[nH]c(C(=O)Nc3ccc(F)cc3Br)cc2c1
99	-3%	Cc1cc(C)n(CC(O)CN2C(=O)NC(C)(C)C2=O)n1 (stereo unspecified)
100	-2%	CC(C)=CCC[C@](C)(O)C1CC=C(C)CC1 (stereo partly specified)

Four of the compounds above, as labelled records.
(28) COc1ccc(C(=O)O)cc1S(=O)(=O)N(C)C
  VDR inh = -15%
(29) O=C1/C(=C/c2cccnc2)Cc2ccc(Cl)cc21
  VDR inh = -20%
(30) NS(=O)(=O)c1ccc(CCNC(=O)c2ccc([N+](=O)[O-])s2)cc1
  VDR inh = -19%
(31) COc1ccc(NC(=S)N2CCN(C/C=C/c3ccccc3)CC2)cc1OC
  VDR inh = -2%

(list continues)
No.	VDR inh	smiles
101	-4%	COc1ccc(-c2coc3c(CN4CCOCC4)c(O)ccc3c2=O)cc1
102	-14%	CCOC(=O)c1nnn(-c2nonc2-n2cccc2)c1CN1CCCCC1
103	2%	O=C(O)CCC(=O)N1CCOc2ccc(Cl)cc21
104	-9%	CC1(C)CC(=O)C(=CN2CCN(C(=O)c3ccco3)CC2)C(=O)C1
105	-21%	Cc1ccc(C(C)C)c(OCC(=O)NS(=O)(=O)c2ccc(Cl)cc2)c1
106	1%	COc1ccc(C(CC(=O)NCCN2CCOCC2)NS(=O)(=O)c2ccc(C)cc2)cc1 (stereo unspecified)
107	?	O=C(Nc1ccncc1)C1C(=O)c2ccccc2N(Cc2ccccc2)C1=O (stereo unspecified)
108	1%	O=C(c1cccs1)N1CCC(c2nc3ccccc3s2)CC1
109	6%	Clc1cccc(CNCCNCc2cccc(Cl)c2)c1
110	-12%	CCOc1ccccc1NC(=O)CSc1ncc(S(=O)(=O)c2ccc(C)c(C)c2)c(N)n1
111	1%	CCn1c(=O)cc(SCC(=O)NCC2CCCO2)c2ccccc21 (stereo unspecified)
112	-13%	CCOC(=O)c1sc2nc(C)nc(SC(C)C(=O)NC3CC3)c2c1C (stereo unspecified)
113	8%	CCOC(=O)C1CCN(C(=O)C2CCN(S(=O)(=O)c3c(C)noc3/C=C/c3ccc(C)cc3)CC2)CC1
114	-2%	COc1ccc(C(=O)OCCOc2ccccc2C(C)=O)c(O)c1
115	-15%	O=C(O)c1ccc(COc2ccccc2[N+](=O)[O-])o1
116	6%	COc1ccc(-c2coc3c(OC)c(OC)cc(OC)c3c2=O)cc1
117	-10%	CCN(CC(=O)N1CCOCC1)S(=O)(=O)c1ccc(Cl)cc1
118	3%	CCOC(=O)C1(CCCc2ccccc2)CCN(C(=O)C(C)n2cncn2)CC1 (stereo unspecified)
119	13%	CC(=O)c1ccc(NC(=O)C2CC(=O)N(C(C)C)C2)cc1 (stereo unspecified)
120	-11%	COc1ccc(C2CC(=O)Oc3ccc(OC)cc32)cc1 (stereo unspecified)
121	11%	CC(C)OP(=O)(OC(C)C)C(Nc1ccccn1)c1ccc(F)cc1 (stereo unspecified)
122	-15%	Cc1ccc(Cl)c(NC(=O)CN(C)CC(=O)Nc2ccc(F)c(F)c2F)c1Cl
